Biofilm kill mix: mixtures killing C. albicans biofilm. AID 1242. C. albicans biofilm persisters + clotrimazole, fluorescence viability; primary screen in compound mixtures of four per well. inhibition, % at 7.6 µM. actives 0.02% (n = 120,000);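 active means inhibition above 30.3% in the primary screen of four-compound pools, then above 30% when the compound was retested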;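 further: compounds exposed to preformed 24 h biofilms for 48 h; the number belongs to the whole pool; some results filed as inactive read as strong as hits; inactives centre near 12; 0% = biofilm with clotrimazole alone and 100% = kill control; retested singly at about 60 µM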
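Probe or stimulus – Clotrimazole 50 µg/mL co-treatment · System – C. albicans biofilms · Schedule – 24 h biofilm formation, then 48 h compound exposure, 37 °C · Evaluation – percent inhibition of biofilm viability · Technique – 2-h Alamar Blue fluorescence, 535/590 nm excitation/emission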
* hit, by the source's call. The list is partial; count on the stated rates, not on these rows.

Start of the data: the first four records, ahead of the listing:
SMILES	Biofilm kill mix
Cc1ccc(Cn2c(O)c(N=NC(=S)Nc3ccccc3F)c3ccccc32)cc1	20.0
Cc1csc(Nc2ccc(Cl)cc2)n1	4.5
COc1ccc(OC2OC3COC(c4ccco4)OC3C(O)C2NC(C)=O)cc1 (centres undefined)	22.3
COc1ccccc1OCCC(=O)OCC(=O)Nc1cccc(Br)c1	8.5

All compounds of this part, from the start:
SMILES	Biofilm kill mix
Cc1ccc(Cn2c(O)c(N=NC(=S)Nc3ccccc3F)c3ccccc32)cc1	20.0
Cc1csc(Nc2ccc(Cl)cc2)n1	4.5
COc1ccc(OC2OC3COC(c4ccco4)OC3C(O)C2NC(C)=O)cc1 (centres undefined)	22.3
COc1ccccc1OCCC(=O)OCC(=O)Nc1cccc(Br)c1	8.5
Cc1c(NC(=O)C(C)OC(=O)CCC2CCCC2)c(=O)n(-c2ccccc2)n1C (centres undefined)	19.0
Cc1cc(C(=O)Cn2nnc(-c3ccc(Cl)cc3)n2)c(C)n1-c1ccccc1	12.3
CC(C)(O)[C@@H]1Cc2c(ccc3ccc(=O)oc23)O1	13.7
COC(CC(=O)NNC(=S)Nc1ccccc1)OC	3.5
CN(C(=O)COC(=O)c1ccc2[nH]c3c(c2c1)CCCC3)C1CCS(=O)(=O)C1 (centres undefined)	6.5
COc1ccc(N2CCN(C(=O)C3Cc4ccccc4CN3C(=O)c3ccccc3)CC2)cc1 (centres undefined)	10.4
Cc1ccc(NC(=O)CSc2ccccn2)cc1S(=O)(=O)N1CCOCC1	11.5
O=C(Cc1ccccc1)NN1C(=O)c2ccccc2C1=O	8.6
Cc1nc2ccccn2c1C(=O)NC1CCCC1	22.2
CC(C)CC(c1nnnn1Cc1ccccc1)N1CCC(C(N)=O)CC1 (centres undefined)	11.6
O=C(Nc1ccc(F)cc1)c1c(Cl)nc2ccccn12	4.7
CC(C)c1ccccc1NS(C)(=O)=O	31.4
O=C(Nc1ccccc1)N1CCCN(c2nccc(C(F)(F)F)n2)CC1	10.8
Cc1ccc(NP(=O)(Nc2ccc(C)cc2)Nc2ccc(C)cc2)cc1	4.9
COc1ccc2cc(C(c3nnnn3C3CCCC3)N3CCCCCC3)c3nnnn3c2c1 (centres undefined)	8.8
CCCCCNc1nc(-c2ccccc2)nc(-n2ccnc2)n1	15.4
Cc1nn(-c2ccc(C(=O)OC(C)C)cc2)c(C)c1[N+](=O)[O-]	-5.9
Cc1cc(/C=C2/NC(=O)NC2=O)c(C)n1-c1ccc(N2CCOCC2)cc1	18.8
CCOc1ccc(OCc2ccc(C(=O)N3CCCC(C)C3)cc2)cc1 (centres undefined)	11.2
O=C(CCC(=O)Nc1ccccc1)NNS(=O)(=O)c1ccccc1[N+](=O)[O-]	6.3
Cc1ccc(-n2c(C)cc(C(=O)CN3CCOCC3)c2C)cc1	10.2
CCC(CC)NC(=O)CO/N=C/c1ccc(Cl)cc1Cl	12.1
Cc1nc2ccc(NC(=O)c3ccccc3)cc2s1	12.9
O=C1NCCCC1C(=O)N/N=C/c1ccccc1[N+](=O)[O-] (centres undefined)	17.4
Oc1ccccc1C=NC1CCCCC1N=Cc1ccccc1O (centres undefined)	6.5
O=C(CSc1nnc(SCc2ccccc2)s1)N/N=C/c1ccc(Cl)cc1Cl	12.4
C=CCn1c(SCC(=O)Nc2ccc(C(=O)O)cc2)nnc1-c1cccnc1	17.4
CNc1oc(-c2ccccc2Cl)nc1P(=O)(c1ccccc1)c1ccccc1	14.3
C#CC(CC)(CC)NC(=O)Nc1ccccc1C(=O)OC	14.4
COc1ccc(-c2c(C(F)(F)F)nn(C)c2NC(=O)c2cccnc2)cc1	19.4
CCCCCCCC1(C)NC(=O)N(CC(=O)Nc2cc(C)on2)C1=O (centres undefined)	9.2
CC1=C(C(=O)N2CCOCC2)C(c2ccc(Br)cc2)NC(=S)N1c1ccccc1 (centres undefined)	10.7
O=C1Nc2ccccc2OCc2c1cccc2[N+](=O)[O-]	-5.1
C#CCOCCOCCOCCNc1nc(N2CCN(C(=O)[C@H]([C@@H](C)CC)n3cc([C@@H](N)CO)nn3)CC2)nc(N2CCN(C(=O)[C@H]([C@@H](C)CC)n3cc([C@@H](N)Cc4ccc(O)cc4)nn3)CC2)n1	14.7
CC(=O)NC(Cc1ccc(O)cc1)C(=O)NN (centres undefined)	10.9
CCC1(CC)N=C(c2ccccc2)C(=S)N1	1.2

Exported in CSV form: 3 of the compounds above
structure,Biofilm kill mix
C#CC(CC)(CC)NC(=O)Nc1ccccc1C(=O)OC,14.4
COc1ccc(-c2c(C(F)(F)F)nn(C)c2NC(=O)c2cccnc2)cc1,19.4
CCCCCCCC1(C)NC(=O)N(CC(=O)Nc2cc(C)on2)C1=O (centres undefined),9.2

Ordered by molecular weight (lowest first): some entries from above.
SMILES	Biofilm kill mix
CCC1(CC)N=C(c2ccccc2)C(=S)N1	1.2
C#CC(CC)(CC)NC(=O)Nc1ccccc1C(=O)OC	14.4
C=CCn1c(SCC(=O)Nc2ccc(C(=O)O)cc2)nnc1-c1cccnc1	17.4

Further structures follow.
SMILES	Biofilm kill mix
Nc1ccc(N(CCO)CCO)cc1	-0.7
CCO[C@H]1OC(C(=O)N2CCN(Cc3ccc4c(c3)OCO4)CC2)=C[C@@H](c2ccc(Br)cc2)[C@@H]1CCCO	11.2
N/C(=N\NC(=O)c1ccccc1)c1cc2ccccc2oc1=O	9.6
CCOC(=O)c1sc(NC(=O)c2ccc(S(=O)(=O)N3CCCCCC3)cc2)nc1-c1ccccc1	17.3
COc1ccc(CN2C(=O)CC(Cc3ccc(C)cc3)C2=O)cc1OC (centres undefined)	19.0
O=C(Cn1nnc(-c2ccccc2)n1)NNC(=O)c1ccc(Br)cc1	3.5
O=C(CCC(=O)c1ccc(Oc2ccccc2)cc1)Nc1cccc(Cl)c1	19.4
O=C(c1ccc(F)cc1)N1CCOCC1	7.9
CN(c1ccccc1)S(=O)(=O)c1cccc(NC(=O)CSc2ncc(C(F)(F)F)cc2Cl)c1	5.4
COc1ccc(/C=C/C(O)=C(\C#N)c2nnc(N3CCOCC3)n2-c2ccccc2)cc1OC	10.6
Cc1ccc(OCCC(=O)O)cc1	9.4
O=C(N/N=C1/CCSC1)c1cccc([N+](=O)[O-])c1	13.5
COc1ccccc1N1CC(C)(C)C(=O)N(C(=O)c2c(F)cccc2Cl)C1=S	13.6
CC(NC(=O)C(=S)N1CCN(C)CC1)c1ccccc1 (centres undefined)	10.9
Cc1ccc(C(=O)Nc2cc(C(C)C)c(O)c(C(C)C)c2)cc1	14.1
CC(=O)Nc1ccccc1C(=O)C(=O)Nc1cccc(C(=O)N2CC(C)CC(C)C2)c1 (centres undefined)	2.6
CC(=O)C1=C(O)C(=O)N(c2ccc(C)cc2)C1c1ccc([N+](=O)[O-])cc1 (centres undefined)	4.1
Cc1ccc(/C=N/Nc2ccc(Cl)c(C(=O)O)c2)s1	19.8
CC1CCCCC1NC(=O)Cn1nnc2ccccc2c1=O (centres undefined)	9.0
O=C(Cc1ccc2c(c1)OCCO2)N1CCN(S(=O)(=O)c2cccc(C(F)(F)F)c2)CC1	7.2
CCCCCCc1cc2cc(S(=O)(=O)c3ccc(F)c(Cl)c3)c(=O)oc2cc1O	13.6
Cc1cc(NN)nc(NS(=O)(=O)c2ccc(Cl)cc2)n1	17.1
Cc1ccc2c(c1)NCC(C(=O)NCc1ccccc1)O2 (centres undefined)	6.5
COc1cccc(Cl)c1NC(=O)N1CCc2c([nH]c3ccccc23)C1C(F)(F)F (centres undefined)	25.4
Cc1nnn(-c2nonc2N)c1C(=O)N/N=C/c1cccc2ccccc12	15.0
CCOC(=O)/C(C#N)=N\Nc1ccc(S(=O)(=O)Nc2nc(C)cc(C)n2)cc1	4.4
O=C1CCN(Cc2ccccc2)C(=O)N1c1ccccc1	10.8
Cc1nc(-c2ccncc2)sc1C(=O)Nc1ccc(Br)cc1	6.3
CC(=O)NC1=NN(C(C)=O)C(C)(c2ccc(Cl)s2)S1 (centres undefined)	11.1
O=C(NCc1ccccn1)c1ccc(CNS(=O)(=O)c2cccc(Cl)c2)cc1	11.8
COc1ccccc1CNc1ccc(CNc2ncn[nH]2)cc1	19.9
COc1cccc2sc(N(CCCN(C)C)C(=O)C(c3ccccc3)c3ccccc3)nc12	13.2
COC(=O)N1[C@H](Cc2ccccc2)C=C[C@]1(C)C(=O)O	1.9
CC(=O)N1CCC(C(=O)Nc2nc(-c3ccccc3)ns2)CC1	5.2
COC(=O)c1ccc(CSc2nc3ccc(S(=O)(=O)N4CCOCC4)cc3[nH]2)cc1	14.0
CCN(CC)S(=O)(=O)c1ccc(C(=O)OCC(=O)NCCN2C(=O)CSC2=O)cc1	11.9
O=C(NC1CCCCC1)C(=S)NCc1ccccc1	8.6
NS(=O)(=O)c1ccc(NC(=S)NC(=O)c2cccc(Br)c2)cc1	8.3
CC1CCN(Cc2cc(=O)oc3cc4c(cc23)CCCC4)CC1	24.4
CS(=O)(=O)N1N=C(c2ccco2)CC1c1ccc(Cl)cc1 (centres undefined)	12.4
Cc1ccc(-c2c[n+](CC(=O)Nc3cc(=O)n(C)c(=O)n3C)c3n2CCC3)cc1	13.8
O=C(NNC(=O)c1sccc1-n1cccc1)c1cccs1	-24.5
CCC/C=N/NC(=O)C1COc2ccccc2O1 (centres undefined)	14.5
CCn1c(/N=C/c2ccccc2NS(=O)(=O)c2ccc(C)cc2)nc2ccccc21	3.5
Cc1cc(C)n(CCC(=O)N/N=C/c2ccc(Cl)c([N+](=O)[O-])c2)n1	12.7
COC(=O)CSC(=S)N1CCCC(C)C1 (centres undefined)	-0.8
CCOC(=O)c1nn(-c2ccc3c(c2)OCCO3)cc1O	7.7
CC(C)(C)c1ccc(OCCNC(=O)Cc2ccc(F)cc2)cc1	4.0
CCNC(=O)C1CC(=O)N(CCCc2ccccc2)C(=Nc2ccccc2)S1 (centres undefined)	24.6
C/C(=N\S(=O)(=O)c1ccc(C)cc1)NC(=S)Nc1ccc(C)cc1	-6.2

Following part.
SMILES	Biofilm kill mix
CC(C)Sc1ncc(S(=O)(=O)c2ccccc2)c(=O)[nH]1	29.2
O=C(NN1C(=O)C2C(C1=O)C1C=CC2C12CC2)c1ccc(Cl)cc1 (centres undefined)	6.0
CCOP1(=O)OCC2OC(n3cnc4c(N)ncnc43)C(O)C2O1 (centres undefined)	15.9
CCOc1ccc(CN(C)CC(=O)NCc2ccccc2Cl)cc1	10.4
CCc1cc(C(=O)c2ccc(OC)cc2)c(NC(=O)CN2CCN(C)CC2)s1	4.8
NC(=O)COC(=O)c1ccccc1OCc1ccc(Cl)cc1	10.6
CC(=O)c1cccc(CN2CCC(CO)(Cc3ccccc3)CC2)c1	5.1
COCCNc1nc(-c2cc(-c3ccc(Cl)cc3)on2)cc(C(C)C)n1	14.8
COc1ccc(C2CC(=O)OC3=C2C(=O)CC(C)(C)C3)c(OC)c1 (centres undefined)	2.6
O=C(N/N=C/c1cccc([N+](=O)[O-])c1)c1c[nH]c2ccccc12	20.6
Cc1nn(-c2ccccc2)c(N2CCCCC2)c1/C=N/NC(=O)c1ccncc1	8.4
CC(C)(C)NC(=O)NC(=O)CN1CCN(c2ccccc2O)CC1	22.5
CC1CCCN(CC(O)COCc2ccc3c(c2)OCO3)C1 (centres undefined)	2.3
COc1ccccc1CNC(=O)Cc1ccc(Br)cc1	8.5
CCOC(=O)N1CCc2c(sc3c2c(=O)n(Cc2ccccc2)c(=O)n3Cc2ccc(C)cc2)C1	2.4
CCCCN(C)C(=O)c1cc2c(s1)-c1ccccc1S(=O)(=O)C2	10.2
COc1ccc(C2C(C(=O)NCc3ccccn3)CCC(=O)N2c2cc(OC)c(OC)c(OC)c2)cc1 (centres undefined)	7.4
COCCn1c(=NC(=O)c2nc3ccccc3s2)sc2cc(S(C)(=O)=O)ccc21	10.8
O=C(Nc1cccc(NC(=O)c2ccc(-c3ccc(Br)cc3)o2)c1)c1ccco1	-5.0
N/C(Cc1cccc2ccccc12)=N\OC(=O)c1ccc(Br)o1	33.0
CC(C(=O)O/N=C(\N)c1cccnc1)c1ccc([N+](=O)[O-])cc1 (centres undefined)	8.1
Cn1nc(-c2ccc(NCCO)c([N+](=O)[O-])c2)c2ccccc2c1=O	11.6
O=C(N/N=C/c1ccc(-c2cccc([N+](=O)[O-])c2)o1)c1cccs1	2.9
O=C(O)c1ccc(N/N=C/C=C/c2ccccc2[N+](=O)[O-])cc1	-3.5
O=S(=O)(Nc1ccncc1Cl)c1cc(Cl)ccc1Cl	-1.6
Cc1cc(C)cc(NC(=S)NCc2cccs2)c1	8.1
CCOC(=O)c1c(N2C(=O)Nc3ccccc3N2O)n[nH]c1-c1cccc(Cl)c1	8.5
COCCCNC(=O)CSC1=Nc2ccccc2C2=NC(c3ccccc3)C(=O)N12 (centres undefined)	13.9
Cc1cc(Cl)ccc1NC(=S)NC(C)(C)C	6.6
O=c1[nH]c(SCc2cccc(Cl)c2)nc2ccccc12	13.4
Cc1ccc(C(=O)CSc2ccc(-c3cccnc3)nn2)cc1	15.9
N#CCc1nn(-c2ccc(Cl)cc2)c(N)c1C#N	21.3
CCc1ccc(N2Cc3ccccc3C2)cc1	21.0
CCC1Cc2c(nc(N)c3c(N)nc(N4CCCCC4)c(C#N)c23)O1 (centres undefined)	13.1
O=c1c(-c2ccccc2)c(O)c2c(n1-c1ccccc1)CCCC2	8.8
Cc1c(Cl)c([N+](=O)[O-])nn1CCCC(=O)Nc1c(Cl)cccc1Cl	18.1
Cc1cc(C)c(S(=O)(=O)N2CCCOC2CNC(=O)C(=O)NCCC2=CCCCC2)c(C)c1 (centres undefined)	14.3
O=C(NC(=S)NC1C2CC3CC(C2)CC1C3)C12CC3CC(CC(C3)C1)C2 (centres undefined)	5.0
COc1ccccc1OCCC(=O)OCC(=O)Nc1ccc(Br)cc1F	9.3
Cc1nc2ccc(NC(=O)c3cccnc3)cc2s1	-9.8
